T cruzi repl – T. cruzi replication inhibition. T. cruzi beta-gal in NIH3T3, luminescence, 90 h. actives 1.4% (n = 300,000). inhibition, % (no concentration beside the values). AID 1885;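 active = mean inhibition across valid replicates above about 55%, limit read from the data; inconclusive = mean below that limit but half or more replicates reach it; inactive = mean below it, under half of replicates reach it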;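 also: signal also drops with host cell toxicity which is not excluded here; 0% = plate median of DMSO wells and 100% = zero luminescence signal; higher percent means less beta-gal luminescence so fewer parasites; stock transfer was 50 nL into about 50 µL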
RanGTP-Impb inh – inhibitors of RanGTP-importin-beta interaction, primary screen, biochemical, FRET, CFP-Ran, YFP-importin-beta, homogeneous; cell-free CFP-Ran/YFP-importin-beta FRET ratio; inhibition, % (no concentration beside the values); actives 1.1% (n = 300,000); AID 2216;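 active = most replicates above 15%; inconclusive = exactly half above 15%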;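 also: 0% = DMSO wells and 100% = Ran loaded with GDP instead of GTP; wells of about 40 µL received 100 nL stock; the first replicate is given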
Beta apoptosis – blocks beta cell apoptosis; INS-1E cytokine-induced death, ATP luminescence, 48 h; percent of positive-control rescue, neutral wells zero; protection from apoptosis, % (test concentration not listed); actives 0.8% (n = 300,000); AID 435005;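 active = all replicates at 75% or more, or half of them and the mean; inconclusive = half reach 75% but not the mean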;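 also: 0% = cytokine-treated negative control wells and 100% = positive control rescue; higher means more ATP so stronger rescue from cytokine killing; wells of about 40 µL received 100 nL stock; the first replicate is given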
Calb FLC – affects C. albicans growth with fluconazole; C. albicans CaCi-2 (fluconazole-resistant clinical isolate) + fluconazole, Alamar Blue growth, 48 h; growth inhibition, % (concentration not given with the values); actives 0.57% (n = 300,000);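 active = most replicates above 75%; inconclusive = exactly half above 75%; inactive = most below 75%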;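 also: all wells also contain fluconazole at 8 µg/ml as a sub-toxic cotreatment; 0% = median of DMSO wells and 100% = median of geldanamycin control wells; wells of about 8 µL received 7.5 nL stock; the first replicate is given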
LANA-H2A inh – blocks KSHV LANA binding to histone H2A/H2B; cell-free LANA-H2A/H2B peptide, fluorescence polarization; actives 0.6% (n = 320,000); Q9QR71; inhibition, % (test concentration not listed); in the data active = inhibition mostly above about 10%, no sharp cut-off; inactive = mostly below about 6.7%;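 also: stock transfer was 7.5 nL into about 10 µL; 0% = median of vehicle wells and 100% = median of positive control wells; one replicate is shown; the record names a cut of 25% in any replicate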
Bfl-1 A1 inh – inhibitors of the anti-apoptotic protein A1, read as caspase activation. MEF A1-2A-BIM cells, Caspase-Glo 3/7 luminescence, 3 h; percent of clofoctol response, vehicle zero. actives 0.066% (n = 330,000). caspase activation, % (test concentration not listed);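 active = over half of replicate activation scores above 10%, or exactly half above 10 with the replicate mean above 10; inconclusive = replicate mean below 10 yet half the replicates above 10; inactive = over half of replicates below 10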;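 also: wells of about 30 µL received 50 nL stock; many hits fall short of the cut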
UCH37 inh – human UCH37 deubiquitinating enzyme inhibition; inhibition, % (concentration not given with the values); actives 0.33% (n = 330,000); purified proteasome/UCH37, Ub-AMC cleavage fluorescence; Q9Y5K5;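 active = mean of two replicates above 20%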;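 also: 0% = compound-free wells with enzyme and 100% = wells lacking proteasome; stock transfer was 100 nL into about 20 µL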
Target sequence (Q9Y5K5 whole entry, looked up): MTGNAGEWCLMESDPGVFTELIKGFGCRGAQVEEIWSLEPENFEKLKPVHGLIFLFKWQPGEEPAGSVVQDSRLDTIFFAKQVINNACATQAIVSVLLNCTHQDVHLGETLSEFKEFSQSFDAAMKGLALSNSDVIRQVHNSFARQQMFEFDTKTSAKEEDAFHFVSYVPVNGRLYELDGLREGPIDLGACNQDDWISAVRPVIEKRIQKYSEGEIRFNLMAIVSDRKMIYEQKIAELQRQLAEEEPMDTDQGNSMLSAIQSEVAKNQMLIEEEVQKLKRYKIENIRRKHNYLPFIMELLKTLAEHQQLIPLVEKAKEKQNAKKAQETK
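Material: human UCH37 enzyme supplied as purified proteasome complex. Measure: % inhibition of Ub-AMC cleavage fluorescence. Medium: pH 7.4 Tris-HCl (50 mM) with ovalbumin, ATP-MgCl2, DTT. Times: 30 min preincubation with enzyme, 25 min cleavage at room temperature. Detection: AMC fluorescence intensity at 355/460 nm.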
B2AR ag – human beta-2 adrenergic receptor agonism by FAP. Am2.2-beta2AR cells, FAP receptor internalization, flow cytometry; reference of the scale not given here. response, % (concentration not given with the values). actives 0.43% (n = 340,000). P07550;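 active = response above a set limit, near 3 SD of response in nonfluorescent compounds, cut at about 42% in these data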;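 also: stock transfer was 100 nL into about 11 µL; a reference agonist was the positive control; negative values mostly stem from fluorescent compounds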
Target sequence (P07550 whole entry, looked up): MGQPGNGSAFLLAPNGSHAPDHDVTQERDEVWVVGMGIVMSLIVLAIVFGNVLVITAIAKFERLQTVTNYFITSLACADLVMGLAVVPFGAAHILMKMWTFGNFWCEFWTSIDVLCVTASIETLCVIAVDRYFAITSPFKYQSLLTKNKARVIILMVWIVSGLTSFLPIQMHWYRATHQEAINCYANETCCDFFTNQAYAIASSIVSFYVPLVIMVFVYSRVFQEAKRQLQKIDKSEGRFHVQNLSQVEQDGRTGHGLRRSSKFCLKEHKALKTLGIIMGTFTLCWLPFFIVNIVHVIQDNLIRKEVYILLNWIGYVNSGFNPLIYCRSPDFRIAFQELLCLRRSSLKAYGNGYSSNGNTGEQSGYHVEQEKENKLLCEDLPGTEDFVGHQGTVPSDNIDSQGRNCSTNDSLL
Numbers without * were called inactive; ? = inconclusive; · = no result given. Not a hit list; overall some 4.3% were active at least once.

SMILES | T cruzi repl | RanGTP-Impb inh | Beta apoptosis | Calb FLC | LANA-H2A inh | Bfl-1 A1 inh | UCH37 inh | B2AR ag
COc1ccccc1N1CCN(C(=O)C2CCN(S(=O)(=O)c3ccc4c(c3)CC(C)N4C(C)=O)CC2)CC1 (stereo unspecified) | 4 | 2.2 | · | -4 | -3.5 | 1.3 | 1.9 | -3
COc1ccc(NC(=O)CSc2nc(C)cs2)c(OC)c1 | -12 | -0.2 | -6 | 9 | 2.8 | 1.6 | 2.0 | 4
CCNC(=O)CN(c1ccc(F)cc1)S(=O)(=O)c1ccc2c(c1)OCCO2 | -5 | 4.1 | · | 0 | -4.6 | 1.4 | 0.6 | 9
COc1ccc(/C=N/NC(=O)c2ccc(Br)cc2)cc1Cn1cc(Cl)cn1 | 15 | 0.2 | 12 | -17 | -6.8 | 0.1 | · | 10
C/C(=N/NC(=O)CNC(=O)c1cccnc1)c1ccc([N+](=O)[O-])cc1 | 0 | 1.7 | 2 | -9 | -4.8 | 1.1 | · | 4
COc1ccc(NC(=O)CC(c2ccccc2)c2ccco2)cc1 (stereo unspecified) | -10 | 1.2 | -10 | -8 | 0.6 | 0.5 | 4.7 | -1
CCN(CC)C(=O)CC(c1ccccc1)c1ccco1 (stereo unspecified) | 7 | -3.6 | -9 | 42 | 1.1 | -0.1 | 3.0 | 0
COc1ccc(S(=O)(=O)N(CC(=O)NCc2cccnc2)c2ccc(C)cc2)cc1OC | -1 | 3.2 | 2 | 9 | -4.4 | 1.4 | 1.4 | 7
CCCN1C(=O)N(c2cccc(C)c2)C(C)(O)CC1(C)C (stereo unspecified) | 10 | 4.2 | -3 | -8 | -1.0 | -0.5 | 1.9 | -7
FC(F)(F)c1ccccc1-n1c(CN2CCCCC2)n[nH]c1=S | -3 | 1.5 | -12 | -3 | 2.8 | -0.3 | 1.4 | 9
COc1ccc(C2CC(c3cccc(OC)c3)n3nc(N)nc3N2)cc1 (stereo unspecified) | 19 | 8.4 | -10 | -5 | 2.1 | 0.1 | -1.5 | 2
O=C(COC(=O)/C=C/c1cccs1)Nc1ccc(Cl)cc1F | · | · | -2 | · | -2.6 | 1.1 | 1.3 | -3
CCC(=O)N1c2ccc(S(=O)(=O)N3CCN(c4ccc([N+](=O)[O-])cc4)CC3)cc2CC1C (stereo unspecified) | 4 | -0.9 | 92* | -23 | -5.7 | -0.5 | 3.5 | -7
CCN(CC)CCN1C(=O)C(O)=C(C(C)=O)C1c1ccccc1[N+](=O)[O-] (stereo unspecified) | -3 | 2.7 | -8 | 0 | 6.5 | 0.1 | · | 3
CN(Cc1ccccc1)C(=O)c1cc2ccccc2o1 | -7 | -1.1 | -12 | -2 | -6.6 | -0.5 | 0.4 | -11
O=C(NC1CS(=O)(=O)CC1NCc1ccccc1)c1ccccc1 (stereo unspecified) | -3 | 4.0 | -5 | -16 | -1.7 | -0.1 | 2.9 | -1
CC(C)c1ccccc1NC(=S)NCc1ccncc1 | -9 | -0.1 | -1 | -7 | -2.7 | 2.1 | -3.3 | 2
CC(C)[C@H](NS(=O)(=O)c1ccccc1)C(=O)OCC(=O)Nc1ccc2c(c1)OCO2 | -6 | -2.3 | 0 | ? | -5.2 | -0.6 | 2.2 | -12
CC(Oc1ccccc1)C(=O)Nc1cccc(-c2nc3ccccc3[nH]2)c1 (stereo unspecified) | 3 | -2.1 | · | -15 | -5.2 | -3.3 | -1.5 | 8
CCCCNC(=O)CNC(=O)c1nn(-c2ccc(OC)c(Cl)c2)c(=O)c2ccccc12 | -3 | 5.7 | 1 | 2 | -8.9 | 1.9 | -13 | -7
O=C(/C=C/c1ccc(Cl)cc1)NC1CC2CCC1C2 (stereo unspecified) | 17 | -1.4 | -3 | 66 | 4.1 | 2.6 | 2.5 | -6
COc1ccc(C(=O)N2CCC(C(N)=O)CC2)cc1S(=O)(=O)N1CCCC1 | · | · | 3 | · | 3.6 | 0.0 | 4.8 | 0
C[C@@]12C(=O)N(Cc3ccco3)CC(=O)N1[C@H]1c3cc(Cl)ccc3OC[C@@H]1[C@@H]2c1ccccc1 | · | · | -8 | · | 1.2 | 0.2 | 0.9 | -8
Cc1nc(NCCCn2ccnc2)c2oc3ccccc3c2n1 | 27 | 2.3 | -4 | 3 | -1.3 | -0.5 | -0.7 | -8
COc1ccc(NS(=O)(=O)c2ccc(-c3cnc(C4CC4)o3)cc2)cc1OC | -34 | 4.2 | 93* | -1 | -1.2 | -1.5 | 5.2 | -3
c1cnc(SCCCOc2ccc3ccccc3c2)nc1 | -6 | ? | · | -1 | -3.2 | 1.9 | 4.0 | -14
COCCNC(=O)C(C)OC(=O)C1=Cc2ccccc2OC1 (stereo unspecified) | -14 | 3.4 | -5 | -3 | 3.1 | 0.0 | -24 | -1
O=C(CC1Nc2ccccc2NC1=O)NC1CCCCC1 (stereo unspecified) | -5 | · | -5 | 9 | -1.4 | -0.1 | -60 | -2
O=C(NCCN1CCN(S(=O)(=O)c2ccc([N+](=O)[O-])cc2)CC1)C(=O)Nc1ccccc1 | 28 | 0.4 | 2 | 5 | 3.7 | 0.5 | -2.4 | -2
CCc1c(C)nc(SCC(=O)N2CCCCC2C)[nH]c1=O (stereo unspecified) | -1 | -0.6 | -3 | -5 | -0.2 | -0.1 | 0.6 | -1
Cc1ccc(-n2ncc3c2CC(C)(C)CC3NC(=O)c2ccccn2)cc1 (stereo unspecified) | 2 | 0.2 | 4 | -20 | -2.6 | 0.3 | 5.0 | 1
Cc1c(C(=O)NN)nc2ccccn12 | -8 | 0.5 | -9 | -11 | -0.7 | -0.2 | -0.4 | 2
Cc1ccc(C2(O)C(=O)c3ccccc3C2=O)c(O)c1C | -13 | 0.1 | -3 | -13 | 1.6 | -0.5 | 4.4 | 12
COc1ccc(CN2CCC(=O)N([C@H](CO)Cc3ccccc3)CC2)cc1OC | -12 | -2.1 | -5 | -6 | -0.4 | 0.1 | 0.0 | 0
Cc1ccc(C)c(SCC(=O)NC(=O)NCc2ccccc2)c1 | 11 | -1.6 | 1 | -2 | -7.4 | -0.3 | 0.6 | 0
CCOC(=O)N1CCN(S(=O)(=O)c2ccc(C(=O)NNc3nc4ccc(Cl)cc4s3)cc2)CC1 | -13 | -1.4 | 82* | -4 | 0.1 | 0.3 | 3.4 | 14
COCCn1c(C)cc(/C=C2\NC(=S)N(C)C2=O)c1C | -3 | 2.2 | 6 | -23 | 1.0 | 0.6 | 10 | 1
Cc1ccc(-c2noc(CN3CCN(c4ccccc4F)CC3)n2)cc1 | -9 | ? | -6 | -8 | -0.2 | 0.0 | 5.8 | -5
CC(=O)NC1CCN(CC(=O)Nc2cccc([N+](=O)[O-])c2)CC1 | -12 | -2.6 | -4 | -12 | 0.2 | -0.4 | 0.4 | -6
CCCCNC(=S)N(C)/N=C/c1c(C)[nH]c2ccccc12 | -7 | 0.3 | 1 | 2 | -9.4 | -0.4 | · | -1

Record cards, from the list above. Order of screens: T cruzi repl | RanGTP-Impb inh | Beta apoptosis | Calb FLC | LANA-H2A inh | Bfl-1 A1 inh | UCH37 inh | B2AR ag
C[C@@]12C(=O)N(Cc3ccco3)CC(=O)N1[C@H]1c3cc(Cl)ccc3OC[C@@H]1[C@@H]2c1ccccc1 is entered as · | · | -8 | · | 1.2 | 0.2 | 0.9 | -8
Cc1ccc(-n2ncc3c2CC(C)(C)CC3NC(=O)c2ccccn2)cc1 (stereo unspecified) is entered as 2 | 0.2 | 4 | -20 | -2.6 | 0.3 | 5.0 | 1
Cc1ccc(C2(O)C(=O)c3ccccc3C2=O)c(O)c1C is entered as -13 | 0.1 | -3 | -13 | 1.6 | -0.5 | 4.4 | 12

The list continues:
SMILES | T cruzi repl | RanGTP-Impb inh | Beta apoptosis | Calb FLC | LANA-H2A inh | Bfl-1 A1 inh | UCH37 inh | B2AR ag
Cc1ccc(N2Cc3ccccc3OC(C)C2=O)cc1 (stereo unspecified) | -2 | -0.4 | -2 | -8 | 5.4 | 1.1 | 3.0 | -1
Oc1ccc(-c2n[nH]c(=S)n2-c2ccc3c(c2)OCCO3)cc1 | -3 | 5.7 | 0 | -28 | -2.4 | 0.5 | -1.9 | 2
COc1ccccc1-n1nnnc1SCc1ccccc1 | 9 | ? | · | -6 | -1.8 | 0.0 | 1.7 | -2
Cc1cc(NC(=O)Nc2ccc(F)c(Cl)c2)no1 | 12 | ? | -8 | 25 | 1.1 | 0.0 | 1.7 | 0
Cc1c(NS(=O)(=O)c2cc(NC(=O)CCN3CCCC(C)C3)ccc2Cl)c(=O)n(-c2ccccc2)n1C (stereo unspecified) | -7 | 3.5 | -2 | 2 | 3.9 | -0.5 | 1.3 | 5
C(=N\Nc1ncnc2sc3c(c12)CCC3)/c1ccncc1 | 36 | -0.9 | -1 | 15 | 1.3 | -0.2 | · | -12
CNC(=O)c1ccc(-c2nc(-c3ccccc3)cs2)cc1 | -12 | -3.1 | -8 | -5 | 0.3 | 0.1 | -6.2 | -3
O=C(Nc1nc(-c2ccccn2)cs1)c1ccccc1-n1cnnn1 | 63* | -1.1 | 78* | -13 | -4.1 | 0.1 | 7.3 | -8
CCCN1CCN(S(=O)(=O)c2c(C)[nH]c(C)c2C(=O)N2CCCCC2)CC1 | -5 | 2.2 | · | -3 | -2.3 | -0.3 | 0.5 | -5
COc1ccc(S(=O)(=O)n2ccc(C(C)Oc3ccc(-c4ccccc4)c(F)c3)n2)cc1 (stereo unspecified) | 23 | 14 | 31 | 23 | 1.2 | 1.1 | 1.3 | 10
O=C(NCCSCc1ccco1)Nc1cc(Cl)cc(Cl)c1 | 10 | 3.4 | 8 | -1 | -3.7 | 0.3 | 3.7 | -1
O=C(c1ccc2c(c1)OCCO2)C1CCN(C(=O)c2ccc(F)cc2)CC1 | -5 | -3.9 | -6 | -1 | -6.0 | 0.2 | 2.4 | 15
COc1ccc(OC)c(NC(=O)COC(=O)c2c3c(nc4ccccc24)CCCC3)c1 | 26 | -0.7 | 18 | 1 | -4.6 | -0.4 | 2.6 | 18
Cc1cccc(C)c1OCCn1nc(C(=O)O)c2ccccc2c1=O | -6 | -0.1 | -1 | 0 | -1.9 | 0.1 | 2.0 | -2
Cc1c(C(=O)N2CCCCC2C)sc2nc3n(c(=O)c12)CCC3 (stereo unspecified) | -6 | -0.5 | 3 | 1 | 0.3 | -0.4 | 0.4 | 4
Fc1ccc(-c2ccc(/C=N/n3cnnc3)o2)cc1 | -13 | 0.5 | 4 | 0 | -0.9 | 0.8 | · | -4
CCN(CC)S(=O)(=O)c1ccc(NC(=O)[C@@H](NC(=O)c2cc(OC)cc(OC)c2)C(C)C)cc1 | 6 | -1.6 | 5 | -14 | 0.1 | -0.5 | 2.7 | -16
CCC(C)(C)NC(=O)c1ccc2c(c1)OCCO2 | -9 | -2.0 | -6 | 5 | 2.1 | 1.1 | -1.1 | 7
N#Cc1ccccc1NC(=S)NC(=O)C1CCC1 | · | · | -8 | 18 | -4.0 | 0.8 | 1.6 | 5
Cc1cccc(OCC(=O)Nc2ccc(C(=O)NCc3cccnc3)cc2)c1 | 19 | -3.3 | 113* | -8 | 2.2 | 0.5 | · | ·
Clc1ccc2c(NCc3ccco3)ncnc2c1 | -28 | -0.5 | · | 7 | 3.6 | -1.6 | 0.7 | -2
